PK Bst – pyruvate kinase (B. stearothermophilus) modulation. Potency, µM. 51,000 tested, 1.2% active. AID 361. partly purified Bacillus stearothermophilus pyruvate kinase, luminescence ATP production; ribose 5-phosphate activator present at AC10; in the data active means potency below about 11 µM; inconclusive means mostly about 12 µM to 25 µM; inactive means weaker than that;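 the screen sought inhibitors and activators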;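 further: potency means the concentration at half of the fitted maximal effect; scaled between full activation by ribose 5 phosphate and full inhibition by luteolin; about four in five hits inhibit and the cells do not say which; series up to 57 µM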
YjeE inh – inhibitors of E. coli YjeE (TsaE); P0AF67; purified YjeE, fluorescence polarisation of a bound ADP probe; Potency, µM; 71,000 tested, 0.05% active; AID 605; active = well fitted falling curve; inconclusive = weaker or top-dose-only fall, or a rising curve; inactive = flat or poorly fitted curve;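 further: top concentration of the series not given in the record; excess ADP was the control for the full effect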
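Purified YjeE (10 uM) with BODIPY Texas Red-labeled ADP probe (2 uM); compounds pin-transferred, 15 min at room temperature. Binding inhibition read as decreased fluorescence polarization; ADP titration as control.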
Starred values were filed as active, the others as inactive; i = inactive; / = not tested or not shown.

SMILES,PK Bst,YjeE inh
COc1ccc(-n2c3c(cc(C(=O)Nc4ccc5c(c4)C(=O)NC5=O)c2=O)C(=O)CCC3)cc1,/,i
CCS(=O)(=O)N1CCN(C(=O)CCC2CCCC2)CC1,>57,i
c1ccc2c(c1)CCCc1cc(NCCN3CCOCC3)nnc1-2,/,i
O=C(Nc1cccnc1)C(Cc1ccccc1)n1cccc1 (configuration not stated),/,i
O=C(Cl)c1ccc([N+](=O)[O-])cc1,/,i
Cn1ccnc1SCc1cn2ccccc2n1,>57,i
Cc1noc(C)c1CSc1nnc2c(C)cc3ccccc3n12,>57,i
CC1CN(S(=O)(=O)c2ccc(Cl)c(S(=O)(=O)N3CC(C)OC(C)C3)c2)CC(C)O1 (configuration not stated),/,i

SMILES,PK Bst,YjeE inh
COc1cc(C(=O)N2CCCC(c3nc(-c4cccs4)no3)C2)cc(OC)c1OC (configuration not stated),>57,i
Cc1ccc(CN2CC34C=CC(O3)C(C(=O)NCc3ccco3)C4C2=O)cc1 (configuration not stated),>57,i
CCOc1ccc(Nc2nc(NCCN3CCOCC3)nc(OC)n2)cc1,6.3*,i
O=c1nc(-c2ccccc2)c2ccccc2[nH]1,>57,i
O=C(c1cnn2c(C(F)F)cc(-c3ccccc3)nc12)N1CCOCC1,>57,i
c1ccc2sc(SSc3nc4ccccc4s3)nc2c1,/,i
Cc1c(Cl)cccc1Nc1nc(N)nc(CSCCO)n1,>57,i
COC(=O)CSc1nnc2n(C3CCCCC3)c(=O)c3c4c(sc3n12)CCCC4,/,i

SMILES,PK Bst,YjeE inh
Cc1cccc(-c2nnc(-c3ccccc3)o2)c1,/,i
Cc1nc(Nc2ccc3c(c2)OCCO3)c2oc3ccccc3c2n1,4.3*,i
CCOC(=O)COC(=O)c1ccc(O)cc1,/,i
CCC(c1nnnn1C(C)(C)C)N1CCN(C2CCCC2)CC1 (configuration not stated),>57,i
COc1ccccc1CNC(=O)C1COc2ccccc2O1 (configuration not stated),/,i
FC(F)(F)c1ccccc1-c1cncnc1-n1ccnc1,/,i
CC(C)C(NC(=O)c1ccccc1)C(=O)NCc1ccccn1 (configuration not stated),>57,i
CCC(=O)N1C(=O)CCN(C(C)=O)c2ccccc21,>57,i

SMILES,PK Bst,YjeE inh
O=S(=O)(O)C1CCNCC1,/,i
COc1ccc(OC)c(NC(=O)CCN2CC(C)OC(C)C2)c1 (configuration not stated),/,i
CC(=O)Nc1ccc(C(=O)CS(=O)(=O)c2ccc(C)cc2)cc1,>57,i
O=c1[nH]c2cc3c(cc2cc1C(c1nnnn1Cc1ccccc1)N1CCCc2ccccc21)OCO3 (configuration not stated),>57,i
COc1ccc(N(CC(=O)Nc2ccc3c(c2)OCO3)S(=O)(=O)c2c(C)nn(C)c2C)cc1,/,i
CCOC(=O)N1CCC(NC(=O)c2cnn3cccnc23)CC1,>57,i
Cc1ccc2[nH]c3c(c2c1)CN(C(=O)CN1CCN(c2cccc(C)c2C)CC1)CC3,>57,i
O=C(N1CCCCCC1)N1CCN(S(=O)(=O)N2CCOCC2)CC1,>57,i

Part of the list above in order of count of non-hydrogen atoms, smallest number first:
SMILES,PK Bst,YjeE inh
O=S(=O)(O)C1CCNCC1,/,i
COc1ccc(OC)c(NC(=O)CCN2CC(C)OC(C)C2)c1 (configuration not stated),/,i
O=c1[nH]c2cc3c(cc2cc1C(c1nnnn1Cc1ccccc1)N1CCCc2ccccc21)OCO3 (configuration not stated),>57,i

The listing continues:
SMILES,PK Bst,YjeE inh
CC1CCCc2sc3nc(NCc4ccco4)n4ncnc4c3c21 (configuration not stated),>57,i
Cc1cccc(C)c1NC(=O)C1(N(Cc2ccco2)C(=O)CC2NC(=O)NC2=O)CCCCC1 (configuration not stated),>57,i
COc1cc(NC(=O)c2ccc(Br)o2)c(C(=O)O)cc1OC,>57,i
CC(C(=O)N1CC2(C)CC1CC(C)(C)C2)N1C(=O)c2ccccc2C1=O (configuration not stated),/,i
Cc1cc(C)nc(SCC(=O)NC2=NC(=O)C(C)S2)n1 (configuration not stated),>57,i
O=C(O)c1ccc(CSc2nnnn2C2CCCCC2)cc1,>57,i
c1cncc(-c2nnc(SCCSc3nnc(-c4cccnc4)o3)o2)c1,>57,i
Cn1c(C2CCCN2C(=O)OC(C)(C)C)n[nH]c1=S (configuration not stated),>57,i

SMILES,PK Bst,YjeE inh
COCCOC(=O)C1=C(C)NC(C)=C(C(=O)OC(C)C)[C@@H]1c1cccc([N+](=O)[O-])c1,/,i
Cc1cc(NC(=O)CSc2nc(-c3cccnc3)ccc2C#N)no1,>11,/
CCOC(=O)C1CCN(c2cc(=O)n(-c3ccccc3Cl)c(=O)[nH]2)CC1,>57,i
CCn1c(Cc2ccccc2)nnc1SCC(=O)NC(C)(C)C,>57,i
COc1ccccc1C1=NOC(Cn2c(=O)c3c(ncn3C)n(C)c2=O)C1 (configuration not stated),>57,i
NS(=O)(=O)c1ccc(NC(=O)CCc2ccccc2)cc1,>57,i
COc1ccc(C2CC(=O)N3CN(c4ccc(C)c(Cl)c4)CSC3=C2C#N)cc1 (configuration not stated),/,i
Cc1nn(Cc2ccccc2)c(C)c1CCC(=O)O,>57,i

SMILES,PK Bst,YjeE inh
CCOC(=O)C(C)n1cnc2c(cnn2-c2ccc(Cl)cc2)c1=O (configuration not stated),/,i
CCCC(=O)N(c1ccc(OC)cc1)C1C=CS(=O)(=O)C1 (configuration not stated),>57,i
Cn1c(C(=O)N2CCN(C(=O)c3ccco3)CC2)cc2c(=O)n3ccccc3nc21,/,i
CCCCNC(=O)C1CC(=O)N(CCC(C)C)C1 (configuration not stated),>57,i
Cc1ccc(OCCN2CCN(C(=O)CCC(=O)Nc3nnc(C(C)C)s3)CC2)cc1,>11,i
CC(C(=O)N1CCOCC1)N1C(=O)c2ccccc2C1=O (configuration not stated),>26,/
CCN1C(=O)CSc2ccc(C(=O)NCc3ccco3)cc21,>57,i
COCCN(C(C)=O)c1nnc(-c2ccccn2)s1,>57,i

SMILES,PK Bst,YjeE inh
O=C1CC(C(=O)Nc2nccs2)C(c2ccccc2)O1 (configuration not stated),/,i
COc1ccc2c(c1)c(=O)oc1cc(OCC(=O)NC3CC3)ccc12,>57,i
Cc1cc(O)c(C(C)C)cc1NC(=O)Nc1cccc2ccccc12,/,i
Cc1nnc(SCCC(=O)Nc2nc(-c3ccccc3)ns2)s1,>11,i
S=C(NC1CCCCC1)N1CCC([C@H]2C=NC=N2)CC1,/,i
COc1ccc(Nc2nc(N)nc(CN3CCOCC3)n2)cc1,>57,i
Cc1nc(NCC2CCCO2)nc2c1C(=O)CC(C)C2 (configuration not stated),>57,i
CC(C)CC(=O)N[C@H](C(=O)N[C@H](C(=O)N[C@@H](CC(C)C)[C@H](O)CC(=O)N[C@@H](C)C(=O)N[C@@H](CC(C)C)[C@H](O)CC(=O)O)C(C)C)C(C)C,/,i

SMILES,PK Bst,YjeE inh
NC(=O)c1ccsc1NC(=O)CSc1ccccc1F,>11,i
O=C(NCc1cccnc1)c1nnc(Cc2ccc(F)cc2)o1,/,i
CCOC(=O)c1sc(NC(=O)CSc2nnnn2-c2ccccc2)nc1C,/,i
CC1CCCCN1S(=O)(=O)c1ccc(C(=O)Nc2nnc(-c3cccs3)o2)cc1 (configuration not stated),>57,i
Nn1cc(-c2ccccc2)nc1SCC(=O)N1CCN(S(=O)(=O)c2ccc(Cl)cc2)CC1,>57,i
CSc1ccc(Cl)c(C(=O)OCC(=O)NCc2ccco2)c1,/,i
O=C(CN1CCN(c2ccc(F)cc2)CC1)N1CCOCC1,>57,i
CCN(CC)c1nc(N)nc(NS(=O)(=O)c2ccc(Cl)cc2)n1,/,i

SMILES,PK Bst,YjeE inh
CCOCCCNC(=O)Cn1cc2c(n1)CCCC2,/,i
Cc1ccc(Cl)c(Nc2ccccc2C(=O)O)c1Cl,i,i
COc1cccc(CNc2ncc(Br)cc2Br)c1O,>26,/
CC(C)NS(=O)(=O)c1cccc2nsnc12,>57,i
COc1ccccc1NC(=O)c1[nH]c(C)c(C(C)=O)c1C,>57,i
Cc1ccccc1-c1ccc2ncnc(N3CCOCC3)c2c1,/,i
Cc1occc1-c1nnc(SCC(=O)N2CCN(c3ccccc3F)CC2)n1C,>57,i
CC1(C)CC(n2c(NCCO)nc3c(c2=O)C2(CCCC2)Cc2ccccc2-3)CCO1 (configuration not stated),/,i

SMILES,PK Bst,YjeE inh
CNS(=O)(=O)c1cc(O)c2c(S(=O)(=O)NC)cccc2c1,/,i
O=C1C(Cl)=C(N2CCCCCC2)C(=O)N1c1ccccc1,/,i
CN(Cc1ccco1)c1cc(-c2cccc(NS(C)(=O)=O)c2)ncn1,/,i
O=C(NCc1ccco1)c1nc2nc(-c3cccs3)cc(C(F)(F)F)n2n1,/,i
Cc1ccc(NC(=O)Cn2c(=O)n(Cc3ccco3)c(=N)c3c4c(sc32)COC(C)(C)C4)cc1,>57,i
Cc1ccc(C)c(NC2=CC(=O)CC(C)(C)C2)c1C#N,/,i
COc1ccc(Cn2c(=O)oc3ccc(C)cc32)cc1OC,>57,i
Cc1ccc(S(=O)(=O)NC2CCCCC2)cc1,/,i

SMILES,PK Bst,YjeE inh
CN1C(=O)CC(N2CCN(c3ccc(Cl)c(Cl)c3)CC2)C1=O (configuration not stated),>26,/
Cc1ccc(-c2cc(C(=O)NCc3ccc4c(c3)OCO4)no2)cc1,>57,i
COc1ccc(S(=O)(=O)N(C)CC(=O)Nc2ccccc2SC)cc1Cl,>57,i
COc1ccc2cc(C(c3nnnn3C(C)(C)C)N3CCSCC3)c(=O)[nH]c2c1 (configuration not stated),>57,i
CC(=O)c1ccc(C#CC(C)(C)O)s1,>26,/
C[C@@H](NC(=O)C1(N)CCCC1)C(=O)O,/,i
C=CCn1c(C)cc(C(=O)CSc2nc3ccccc3o2)c1C,i,i
CNC(=O)CN(c1ccc(OC)cc1)S(=O)(=O)c1ccc(F)cc1,>57,i

SMILES,PK Bst,YjeE inh
COc1ccccc1N1CCN(CCN2C(=O)CC3(CCCC3)CC2=O)CC1,/,i
Cc1onc(-c2ccccc2)c1C(=O)Nc1nnc(-c2ccncc2)s1,>57,i
Cc1c(-c2nc(N)nc(Nc3ccccc3F)n2)oc2ccccc12,/,i
COCC(C)NS(=O)(=O)c1ccc(OC)cc1 (configuration not stated),/,i
Cn1c(=O)c2ncn(CC(=O)NCCOc3ccc(C(C)(C)C)cc3)c2n(C)c1=O,>57,i
COc1cccc2c1C(=O)c1c(O)c3c(c(O)c1C2=O)C[C@](O)(C(C)=O)C[C@H]3O[C@@H]1C[C@H](N)[C@H](O)[C@H](C)O1,/,i
Nn1c(SC/C=C/c2ccccc2)nnc1-c1ccco1,>57,i
CCN1CCCC1Cn1cnc2c([nH]c3ccc(C)cc32)c1=O (configuration not stated),>26,/

SMILES,PK Bst,YjeE inh
CCCOC(=O)C1C2C=CC3(CN(c4ccc(Cl)c(F)c4)C(=O)C13)O2 (configuration not stated),/,i
CCn1c(COc2ccccc2C)nnc1SCC(=O)N1CCC(C)CC1,>57,i
CC12CCC(C(=O)N(c3ccccn3)c3ccccn3)(OC1=O)C2(C)C (configuration not stated),>57,i
Cc1cc(N(C)Cc2ccccc2)nc(-c2ccccc2)n1,/,i
COC(=O)C1C(=O)C2=C(CC1C)NC(=O)CC2c1cccc(C)c1 (configuration not stated),>57,i
Cc1cccc(C)c1NC(=O)N1CCN(C2CCCCC2)CC1,>57,i
COc1cccc(-c2nc(CS(=O)CC(=O)NC3CCCC3)c(C)o2)c1 (configuration not stated),/,i
CCc1ccc(-c2nnn(Cc3nc4ccccc4s3)n2)cc1,>57,i

SMILES,PK Bst,YjeE inh
CCC(CC)C(=O)NCCc1cc2c(C)ccc(C)c2[nH]c1=O,/,i
O=C(O)CSCc1cccc2ccccc12,/,i
CCc1nc2oc3ccccc3c(=O)c2c(=O)n1Cc1ccc(OC)cc1,>57,i
O=C(NC1(C(F)(F)F)C(=O)Nc2c1c(=O)[nH]c(=O)n2Cc1ccco1)C1CCCCC1 (configuration not stated),>26,/
CC1(C(=O)NC2CCCCCCC2)CCC(=O)N1Cc1ccco1 (configuration not stated),>57,i
CCc1ccccc1NC1=NCC(=O)N1Cc1ccc2c(c1)OCO2,>57,i
Cc1nc2n(c(=O)c1CCN1CCC(c3noc4cc(F)ccc34)CC1)CCCC2,/,i
CCOC(=O)COc1ccc(C(=O)c2ccccc2)c(O)c1,>57,i

Filtered by structure, those above containing a cyano group
SMILES,PK Bst,YjeE inh
Cc1cc(NC(=O)CSc2nc(-c3cccnc3)ccc2C#N)no1,>11,/
COc1ccc(C2CC(=O)N3CN(c4ccc(C)c(Cl)c4)CSC3=C2C#N)cc1 (configuration not stated),/,i
Cc1ccc(C)c(NC2=CC(=O)CC(C)(C)C2)c1C#N,/,i

(continued)
SMILES,PK Bst,YjeE inh
COc1ccc2[nH]cc(CCNc3ncncc3-c3ccccc3Cl)c2c1,/,i
O=C(CSc1nc2sc3c(c2c(=O)[nH]1)CCCC3)NCCO,/,i
Cc1sc(-n2c(C)cc(/C=N/n3cnnc3)c2C)c(C#N)c1C,>26,/
COc1ccc2[nH]cc(CCNc3cc(-c4cccc(C#N)c4)ncn3)c2c1,/,i

These rows are one share of the data; the hit share may differ from the screen's.
